# ALR inh: human ALR oxidase inhibition via reduced H2O2 | 290,000 tested, 3.8% active | P55789 | purified ALR, DTT oxidation, H2O2 HRP-luminol luminescence | AID 485317 | inhibition, % (test concentration not listed);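 active = mean and each replicate at 75% or more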;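 note: stock transfer was 7.5 nL into about 7.5 µL; 0% = neutral wells and 100% = wells with inactivated enzyme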
# Target sequence (P55789 whole entry, looked up): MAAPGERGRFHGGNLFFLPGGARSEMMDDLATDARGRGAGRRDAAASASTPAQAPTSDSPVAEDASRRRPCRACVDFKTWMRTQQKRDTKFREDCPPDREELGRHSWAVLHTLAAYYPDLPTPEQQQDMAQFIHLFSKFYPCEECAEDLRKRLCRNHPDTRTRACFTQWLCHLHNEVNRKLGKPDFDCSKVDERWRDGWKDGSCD
# MLL AF4-AF9 inh: MLL-AF4/AF9 protein interaction inhibition. P42568. AlphaScreen, biotin-AF4 peptide binding to FLAG-AF9. inhibition, % at 10 µM. 350,000 tested, 0.47% active;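 active = every replicate reaching a set inhibition limit, whatever the replicate mean, cut at about 25% in these data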;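 note: 0% = plate neutral control median and 100% = total signal loss; the record names both 10 and 1 µM as test concentration; the first replicate is given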
# rRNA inh HTS: inhibits bacterial ribosomal RNA function over humanized ribosomes. E. coli WT GFP vs humanized-ribosome RFP mutants, fluorescence, 24 h; hits give low values; DMSO median 0, no signal -100. GFP signal change (wild-type ribosome), % (test concentration not listed). 350,000 tested, 1.6% active. AID 720706;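 active = significant combined selectivity score with lowered wild-type GFP, culture density cut under 30%, mutant RFP and density less affected; inactive = any of these conditions unmet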; note: one replicate is shown; some compounds called inactive have numbers as strong as hits
# Ecoli growth: blocks Escherichia coli growth; OD600, 23 h; hits give low values; 330,000 tested, 0.21% active; OD600 absorbance (test concentration not listed);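 active = OD600 absorbance below the run mean of sample wells minus 3.6 SD, in any replicate, cut at about 0.56 in these data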;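 note: stock transfer was 300 nL into about 60 µL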
# FGF22 binding: shifts melting point of recombinant human FGF22 | Q9HCT0 | AID 651658 | 340,000 tested, 1.5% active | calls only at 9.99 µM | recombinant FGF22 thermal shift, SYPRO orange fluorescence; percent of sucrose octasulfate shift, DMSO zero;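 active = melting point raised past a set limit in the mean and every replicate; three in four hits are not shown here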
# Target sequence (Q9HCT0 whole entry, looked up): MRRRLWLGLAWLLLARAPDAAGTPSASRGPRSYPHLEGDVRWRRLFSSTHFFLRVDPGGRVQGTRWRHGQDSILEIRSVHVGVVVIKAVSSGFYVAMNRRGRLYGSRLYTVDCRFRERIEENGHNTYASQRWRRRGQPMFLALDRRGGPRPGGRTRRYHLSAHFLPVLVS
# Vif A3G: HIV-1 Vif–A3G interaction blockers – biochemical, TR-FRET, GST-Vif 1-94, biotin-A3G peptide, dose response retest, primary screen (AID 1117319); TR-FRET GST-Vif / biotin-A3G peptide binding; higher % means a stronger effect; test concentration not given here; strong numbers were not always called active; inhibition, %; hits with a dose series show IC50 in µM; 260,000 tested, 0.57% active;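 active = above the screen mean plus three standard deviations and confirmed in dose response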;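 note: Vif residues 1-94 fused to GST binding biotinylated APOBEC3G peptide 110-148; 0% = full assay without inhibitor and 100% = GST in place of GST-Vif; retest series ran down from 100 µM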
# HNF4A DNA FP: change in binding of human HNF4 alpha to DNA | AID 1224865 | activity change, % at 10 µM | 360,000 tested, 0.3% active | HNF4a-FITC DNA binding, fluorescence polarization, 1 h; in the data active = activity change above about 30%, passing the limit was not always enough;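 note: controls were the assay level and a saturating level of protein; the project sought stronger binding though the title names inhibitors; some compounds called inactive have numbers as strong as hits; positive values seem to mean higher polarization but the record does not say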
# Target sequence (P41235 whole entry, looked up): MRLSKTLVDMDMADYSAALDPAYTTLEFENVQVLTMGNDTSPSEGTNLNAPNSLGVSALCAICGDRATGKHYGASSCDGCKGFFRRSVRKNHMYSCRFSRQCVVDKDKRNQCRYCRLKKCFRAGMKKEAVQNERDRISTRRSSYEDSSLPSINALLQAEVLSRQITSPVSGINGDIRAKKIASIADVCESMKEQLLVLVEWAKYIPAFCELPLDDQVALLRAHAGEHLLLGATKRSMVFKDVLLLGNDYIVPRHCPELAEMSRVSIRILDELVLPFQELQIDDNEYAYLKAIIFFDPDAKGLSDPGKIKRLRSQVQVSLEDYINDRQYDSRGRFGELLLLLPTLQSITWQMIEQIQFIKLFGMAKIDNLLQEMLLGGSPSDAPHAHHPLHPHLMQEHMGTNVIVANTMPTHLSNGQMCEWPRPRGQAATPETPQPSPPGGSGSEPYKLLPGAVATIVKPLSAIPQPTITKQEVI
# rRNA inh HTS OD600: also measured in rRNA inh HTS; calls as there; OD600 change, %; measured here: OD600 growth;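 optical density of the mix in the first replicate; 0 = DMSO median and -100 = no signal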
# rRNA inh HTS RFP: recorded beside rRNA inh HTS, whose call it bears; RFP signal change, %; measured here: RFP humanized mutant strains;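 first replicate; 0 = DMSO median and -100 = no signal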
# Active calls of the source: *; i = inactive; / = not tested or not shown; & = joins results of further samples. An excerpt; rates above refer to the full screens.
ALR inh,MLL AF4-AF9 inh,rRNA inh HTS,rRNA inh HTS OD600,rRNA inh HTS RFP,Ecoli growth,FGF22 binding,Vif A3G,HNF4A DNA FP,Compound
/,0.5,5,8,-1.4,/,i,/,/,COc1ccc(CN(C)C[C@H]2OCCCC[C@H](C)Oc3ccc(NC(=O)CCCN(C)C)cc3C(=O)N([C@H](C)CO)C[C@H]2C)cc1
/,-0.5,8,4,2.1,/,i,/,-2.8,COC(=O)[C@@H]1C[C@@]2(O)[C@@H](O)[C@@H](O)[C@@H](O)C[C@H]2N1CC1CCCCC1
/,/,/,/,/,0.77,/,-1%,-0.5,CCC(C)NC(=O)c1c(F)c(F)c(F)c(F)c1F (centres undefined)
-1,/,/,/,/,0.73,/,70%,-1.9,CC(C)OCCCNC(=O)CNC(=O)c1cccs1
/,-0.8,/,/,/,/,i,/,-2.6,O=C(CS(=O)(=O)c1ccc(Cl)cc1)N1CCN(c2ccccc2)CC1
/,/,/,/,/,0.73,/,5%,2.5,O=C(NC1CCCCNC1=O)c1ccc(Cl)cc1 (centres undefined)
-7,13,-2,3,-0.9,0.72,i,5%,1.6,COc1cc(NC(=S)NC(=O)c2ccccc2F)ccc1NC(=O)c1cccs1
0,/,/,/,/,0.69,/,3%,-1.4,O=C(Cn1c(CO)nc2ccccc21)Nc1cc(C(F)(F)F)ccc1N1CCOCC1
/,3.3,-4,-4,-0.7,0.72,i,-4%,1.1,COC(=O)C/C=C/N(Cc1ccccc1OC)S(=O)(=O)CCl
/,3.6,1,-5,2.0,/,i,/,/,COc1ccc(CN(C)C[C@@H]2OCCCC[C@@H](C)Oc3ccc(NS(=O)(=O)c4cccs4)cc3C(=O)N([C@H](C)CO)C[C@H]2C)cc1
/,2.5,12,5,-2.3,/,i,/,0.0,O=C(NCCCN1CCOCC1)C(=O)N/N=C/c1ccccc1
-1,6.7,-7,-7,5.2,0.66,i,-4%,2.3,COc1ccc(C2C(C#N)=C(N)N(c3ccccc3C#N)C3=C2C(=O)CCC3)cc1CN1CCCC1 (centres undefined)
-1,-0.1,-7,-9,-1.4,0.69,i,7%,6.6,COc1ccc(C2=Nn3c(nnc3-c3cc(C)[nH]n3)SC2)cc1
-4,/,/,/,/,0.69,/,6%,-14,Cn1c(=O)[nH]c2cc(Cl)cnc21
1,-0.5,13,16,2.2,0.67,i,-10%,-0.2,O=S(=O)(NCc1ccccn1)c1ccc(Cl)c(C(F)(F)F)c1
/,/,/,/,/,0.064*,/,-9%,77*,C(C#CCCCCCCCCC[n+]1ccccc1)#CCCCCCCCCC[n+]1ccccc1
-3,/,/,/,/,/,/,-7%,-0.2,CCn1cc(/C=N\NC(=O)C2(C)CC2(Cl)Cl)c(C)n1 (centres undefined)
/,1.3,-1,-14,7.3,/,i,/,/,C[C@@H]1CN([C@H](C)CO)C(=O)Cc2cc(NC(=O)Cn3cnnn3)ccc2O[C@H]1CN(C)Cc1ccc(-c2ccccc2)cc1
-10,3.1,-5,-12,-0.8,0.65,i,/,-1.7,O=C(c1cc2cc(Cl)ccc2o1)N1CCCC1
-1,/,-3,-14,5.4,0.76,/,20%,-0.7,O=C(CN1CCN(Cc2ccc3c(c2)OCO3)CC1)N1CCc2[nH]c3ccc(F)cc3c2C1
-3,-7.1,-2,1,0.4,0.7,i,-9%,-3.9,O=C1N=c2ccccc2=C1c1sc(=S)n(-c2ccc(O)cc2)c1O
-6,11,14,9,0.3,0.71,i,6%,-1.1,O=C(CCSc1nnc(-c2ccc(O)cc2)o1)N1CCOCC1
17,0.2,-42,-59,4.1,/,i,/,-4.0,Cn1nnnc1Sc1ncnc2scc(-c3ccc(Cl)cc3)c12
/,-2.6,-3,-1,-1.4,/,i,/,/,C[C@H](CO)N1C[C@H](C)[C@H](CN(C)Cc2ccc(Cl)c(Cl)c2)Oc2c(NS(=O)(=O)c3cn(C)cn3)cccc2C1=O
6,/,/,/,/,0.7,/,-3%,-2.6,CC1=Nn2c(nnc2-c2ccccc2)SC1
/,-3.7,1,1,-14,0.69,i,-1%,-4.8,O=c1c(Cl)c(NCC2CCCO2)cnn1C12CC3CC(CC(C3)C1)C2 (centres undefined)
/,-3.8,-1,-3,-0.3,/,i,/,/,C[C@@H]1CN([C@H](C)CO)C(=O)c2cc(NC(=O)NC3CCCCC3)ccc2O[C@@H]1CN(C)S(C)(=O)=O
15,0.2,6,4,0.9,0.7,i,11%,-3.4,N#Cc1ccsc1NC(=O)C1=COCCO1
-16,/,/,/,/,0.72,/,1%,0.4,Cc1cc(=S)cc(C)n1CCCn1ccnc1
-51,-15,-20,-30,-12,0.69,i,/,-2.1,S=C(Nc1ccc2nsnc2c1)N1CCCCC1
3,-0.7,6,8,-0.3,0.65,i,/,-3.2,COc1ccc(CNC(=O)CN2C(=O)COc3ccc(S(=O)(=O)NC4CCCC4)cc32)cc1
-1,-6.3,9,11,-7.1,0.68,i,0%,0.8,CCN(CC)S(=O)(=O)c1ccc(Cl)c(C(=O)NCCN2CCOCC2)c1
-3,0.2,-3,-9,-1.1,/,i,/,-0.8,CC(C)c1c(C(=O)N/N=C/c2ccc3c(c2)OCO3)nnn1-c1nonc1N
-5,-2.1,6,4,0.0,0.72,i,-10%,-3.7,CCCCCC(=O)NNC(=O)c1c(O)c2ccccc2n(CC)c1=O
93*,-5.5,-54,-80,-17,0.65,i,-11%,2.3,Cc1ccc(-c2c(C(=O)O)c(C(=O)O)c3n2CSC3)cc1
-4,/,/,/,/,0.71,/,-1%,-1.4,CCN(C(=O)c1cc(Cl)ccc1OC)c1ccccc1
/,0.7,0,-3,-1.7,/,i,/,/,C/C=C/c1ccc([C@@H]2[C@@H](CN(CC)C(=O)CC)N(S(C)(=O)=O)[C@H]2CO)cc1
3,/,/,/,/,0.75,/,-17%,-4.5,Cc1cc(C)nc(N2CCCC(C(=O)NCC(c3ccccc3)c3ccccc3)C2)n1 (centres undefined)
-1,-2.5,0,-12,-1.7,0.7,i,5%,-3.3,NC(=O)NC(CC(=O)N1CCc2ccccc2C1)c1ccc(Cl)cc1 (centres undefined)
-10,-1.2,14,7,-8.6,0.68,i,12%,-0.5,O=C(O)Cc1ccc(NC(=O)c2cnccn2)cc1

# The last two entries of the part above are carried over, then new ones follow:
ALR inh,MLL AF4-AF9 inh,rRNA inh HTS,rRNA inh HTS OD600,rRNA inh HTS RFP,Ecoli growth,FGF22 binding,Vif A3G,HNF4A DNA FP,Compound
-1,-2.5,0,-12,-1.7,0.7,i,5%,-3.3,NC(=O)NC(CC(=O)N1CCc2ccccc2C1)c1ccc(Cl)cc1 (centres undefined)
-10,-1.2,14,7,-8.6,0.68,i,12%,-0.5,O=C(O)Cc1ccc(NC(=O)c2cnccn2)cc1
-9,/,/,/,/,0.71,/,/,-3.4,OCCCn1c(C2CCCN2c2nc(-c3ccc(Cl)cc3)cs2)nc2cc(C(F)(F)F)ccc21 (centres undefined)
0,-2.1,/,/,/,0.7,/,/,0.1,Cc1cc(SCC(=O)Nc2cccc(S(=O)(=O)N3CCOCC3)c2)nc2ccccc12
-2,-17,8,13,8.0,/,i,/,-1.7,CCCCCCc1ccc(N2C[C@H](Cc3ccccc3)[C@@H](CC(=O)Nc3ccccc3)C2=O)cc1
-2,4.5,-2,1,-0.6,0.64,i,/,0.3,CCOc1ccc(S(=O)(=O)N(CC)CC)cc1NS(=O)(=O)c1ccc(F)c(F)c1F
/,5.0,-1,1,-0.6,/,i,/,-4.1,CC1C(=O)N(Cc2cn(CCC3OCCO3)nn2)CCS(=O)(=O)N1Cc1ccc(-c2cccc(N(C)C)c2)cc1 (centres undefined)
9,/,/,/,/,0.74,/,3%,-2.3,CN(CC(=O)N1CCc2ccccc21)S(=O)(=O)c1cccs1
1,/,/,/,/,0.71,/,-1%,4.0,COc1cc(-c2nnc(COc3ccc(Cl)cc3C)o2)cc(OC)c1OC
/,0.1,19,18,1.2,/,/,/,/,COC(=O)C1=C(C)N(C)C(=NCC2CC2)NC1c1ccc(F)cc1 (centres undefined)
-5,/,/,/,/,0.74,/,-3%,-1.9,CCS(=O)(=O)NCCc1csc(-c2ccccc2)n1
/,-1.1,1,-4,0.8,/,i,/,/,CCN(C[C@@H]1N[C@H](CO)[C@H]1c1ccc(-c2cccc(F)c2)cc1)C(=O)COC
6,/,/,/,/,0.74,/,1%,9.3,Cc1cc(SCC(=O)c2cc3ccccc3o2)nc2ccccc12
-3,3.2,2,5,-1.6,0.73,i,14%,-1.3,Cc1ccc(N2OC3C(=O)NC(=O)C3C2c2ccco2)cc1 (centres undefined)
11,/,/,/,/,0.73,/,-1%,0.7,Cc1ccc(OCc2nnc(SCc3nc4ccccc4[nH]3)n2Cc2ccco2)cc1
-18,/,/,/,/,0.72,/,7%&-2%,2.6,COc1ccc(OC)c(C(=O)CN2CCN(S(=O)(=O)c3ccc(Br)cc3)CC2)c1
13,/,/,/,/,0.74,/,1%,-0.1,C=CCNc1ccc(F)c(F)c1N1CCCCCC1=O
/,-0.1,3,1,-3.1,/,i,/,/,COCC(=O)N1C[C@H](C)[C@@H](OC)CN(C)C(=O)c2cc(NC(=O)c3cnccn3)ccc2OC[C@H]1C
6,0.9,/,/,/,0.65,i,/,-1.1,CC(C)NS(=O)(=O)c1cc(C(=O)O)ccc1Cl
0,-67,3,-7,-7.0,0.72,i,19%,2.0,CCCN1CCN(C(=S)Nc2ccccc2C(F)(F)F)CC1
-5,-0.7,5,4,-2.2,0.68,i,2%,3.8,C=CCNc1ccc(N2C(=O)CCCC2=O)cc1[N+](=O)[O-]
/,-3.8,5,17,1.3,/,i,/,/,CCCNC(=O)N(C)C[C@@H]1Oc2cc(C#C[C@H](C)O)ccc2S(=O)(=O)N([C@H](C)CO)C[C@@H]1C
/,-3.1,4,-13,1.7,/,i,/,1.3,O=C(NCCOc1ccccc1)C1C(=O)Nc2ccccc2C(=O)N1C1CCCCC1 (centres undefined)
/,/,/,/,/,0.62,/,28%,1.5,O=C(Nc1ccc2nc3n(c(=O)c2c1)CCCC3)c1cc([N+](=O)[O-])ccc1F
1,/,-15,-16,6.1,0.7,/,1%,0.2,COc1ccccc1N1CCN(C(=O)C2CCN(S(=O)(=O)c3ccc(Cl)cc3)CC2)CC1
/,-1.3,1,5,-0.5,/,i,/,/,CO[C@@H]1CN(C)C(=O)c2ccc(NC(=O)C3CCC3)cc2OC[C@H](C)NC[C@@H]1C
/,-2.1,27,11,2.6,0.7,i,-5%,-1.9,CCCCN1C=C(C(=O)OCC)C(=O)CC1
-5,-0.4,17,6,0.8,0.7,i,2%,2.5,Cc1ccc(NC(=O)Cc2c(O)c3ccccc3[nH]c2=O)c(C)c1
-16,-7.5,-2,-2,-1.0,0.71,i,-7%,0.6,CCOc1cccc2cc(C(=O)N3CC(C)OC(C)C3)c(=O)oc12 (centres undefined)
/,2.2,-2,-9,-2.8,/,i,/,/,COc1ccc2c3c([nH]c2c1)[C@@H](CO)N(C(=O)c1ccccn1)CC31CCN(C(=O)C2CCCCC2)CC1
/,-2.9,-9,-3,2.0,0.7,i,27%,-1.2,COc1ccccc1-n1c(CCn2nc(C)c(Br)c2C)n[nH]c1=S
/,/,/,/,/,0.74,/,-11%,-0.5,CCn1c(SCC(=O)Nc2nccs2)nnc1-c1cc2cccc(OC)c2o1

# Molecules shown so far that have bromine, in the order listed:
ALR inh,MLL AF4-AF9 inh,rRNA inh HTS,rRNA inh HTS OD600,rRNA inh HTS RFP,Ecoli growth,FGF22 binding,Vif A3G,HNF4A DNA FP,Compound
-18,/,/,/,/,0.72,/,7%&-2%,2.6,COc1ccc(OC)c(C(=O)CN2CCN(S(=O)(=O)c3ccc(Br)cc3)CC2)c1
/,-2.9,-9,-3,2.0,0.7,i,27%,-1.2,COc1ccccc1-n1c(CCn2nc(C)c(Br)c2C)n[nH]c1=S

# Screening results: PubChem, several laboratories
